Source: PubChem (several laboratories)
UCH37 inh: human UCH37 deubiquitinating enzyme inhibition. Q9Y5K5. purified proteasome/UCH37, Ub-AMC cleavage fluorescence. inhibition, % (no concentration beside the values). 330,000 tested, 0.33% active;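 active = mean of two replicates above 20%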;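 also: 0% = compound-free wells with enzyme and 100% = wells lacking proteasome; stock transfer was 100 nL into about 20 µL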
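Material: human UCH37 enzyme supplied as purified proteasome complex / Amount: 0.15 nM proteasome as dispensed / Buffer or medium: pH 7.4 Tris-HCl (50 mM) with ovalbumin, ATP-MgCl2, DTT / Times: preincubation 30 min, reaction 25 min, room temperature / Technique: AMC fluorescence from Ub-AMC cleavage, excitation 355 nm, emission 460 nm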
LANA-H2A inh: blocks KSHV LANA binding to histone H2A/H2B | AID 2629 | 320,000 tested, 0.6% active | inhibition, % (test concentration not listed) | cell-free LANA-H2A/H2B peptide, fluorescence polarization | Q9QR71; in the data active = inhibition mostly above about 10%, no sharp cut-off; inactive = mostly below about 6.7%;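 also: stock transfer was 7.5 nL into about 10 µL; 0% = median of vehicle wells and 100% = median of positive control wells; one replicate is shown; the record names a cut of 25% in any replicate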
HNF4A DNA FP: change in binding of human HNF4 alpha to DNA | 360,000 tested, 0.3% active | AID 1224865 | P41235 | activity change, % at 10 µM | HNF4a-FITC DNA binding, fluorescence polarization, 1 h; in the data active = activity change above about 30%, passing the limit was not always enough;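 also: controls were the assay level and a saturating level of protein; the project sought stronger binding though the title names inhibitors; some compounds called inactive have numbers as strong as hits; positive values seem to mean higher polarization but the record does not say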
Target sequence (P41235 whole entry, looked up): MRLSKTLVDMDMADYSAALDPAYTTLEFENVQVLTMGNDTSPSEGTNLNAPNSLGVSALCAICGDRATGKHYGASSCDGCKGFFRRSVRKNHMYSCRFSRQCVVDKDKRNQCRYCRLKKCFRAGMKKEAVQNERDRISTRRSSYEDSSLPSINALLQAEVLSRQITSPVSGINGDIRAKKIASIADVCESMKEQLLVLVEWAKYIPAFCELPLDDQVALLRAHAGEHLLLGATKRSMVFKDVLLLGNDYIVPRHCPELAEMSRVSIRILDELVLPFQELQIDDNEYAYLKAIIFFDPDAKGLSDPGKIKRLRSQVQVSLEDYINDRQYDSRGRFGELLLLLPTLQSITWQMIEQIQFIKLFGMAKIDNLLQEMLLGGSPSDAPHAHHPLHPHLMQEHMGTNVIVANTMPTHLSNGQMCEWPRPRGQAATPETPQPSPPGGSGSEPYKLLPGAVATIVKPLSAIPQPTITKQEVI
Beta2AR agonist: human beta-2 adrenergic receptor agonism by FAP; response, % (no concentration beside the values); P07550; Am2.2-beta2AR cells, FAP receptor internalization, flow cytometry; reference of the scale not given here; 340,000 tested, 0.43% active;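 active = response above a set limit, near 3 SD of response in nonfluorescent compounds, cut at about 42% in these data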;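 also: stock transfer was 100 nL into about 11 µL; a reference agonist was the positive control; negative values mostly stem from fluorescent compounds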
Target sequence (P07550 whole entry, looked up): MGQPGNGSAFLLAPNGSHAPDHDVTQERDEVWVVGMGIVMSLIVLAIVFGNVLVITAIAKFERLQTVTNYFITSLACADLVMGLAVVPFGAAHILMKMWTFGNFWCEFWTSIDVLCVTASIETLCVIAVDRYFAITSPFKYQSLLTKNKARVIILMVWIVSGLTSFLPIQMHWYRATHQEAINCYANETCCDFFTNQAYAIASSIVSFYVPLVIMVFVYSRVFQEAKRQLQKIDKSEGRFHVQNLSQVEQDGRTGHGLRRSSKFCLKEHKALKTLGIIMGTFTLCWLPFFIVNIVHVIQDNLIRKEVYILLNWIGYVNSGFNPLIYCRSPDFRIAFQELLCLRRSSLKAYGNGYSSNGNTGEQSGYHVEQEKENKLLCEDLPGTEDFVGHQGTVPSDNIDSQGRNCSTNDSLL
E coli growth: E. coli growth inhibition; Escherichia coli growth, OD600, 23 h; hits give low values; OD600 absorbance (concentration not given with the values); 330,000 tested, 0.21% active;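 active = OD600 absorbance below the run mean of sample wells minus 3.6 SD, in any replicate, cut at about 0.56 in these data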;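 also: stock transfer was 300 nL into about 60 µL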
Bfl-1 A1 inh: inhibitors of the anti-apoptotic protein A1, read as caspase activation | MEF A1-2A-BIM cells, Caspase-Glo 3/7 luminescence, 3 h; percent of clofoctol response, vehicle zero | caspase activation, % (concentration not given with the values) | 330,000 tested, 0.066% active | AID 2462;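 active = over half of replicate activation scores above 10%, or exactly half above 10 with the replicate mean above 10; inconclusive = replicate mean below 10 yet half the replicates above 10; inactive = over half of replicates below 10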;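 also: wells of about 30 µL received 50 nL stock; many hits fall short of the cut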
Vif TR-FRET: inhibitors of Vif binding to APOBEC3G peptide, primary screen, biochemical, TR-FRET, GST-Vif 1-94, biotin-A3G peptide, dose response retest (AID 1117319) | TR-FRET GST-Vif / biotin-A3G peptide binding; higher % means a stronger effect; test concentration not given here; strong numbers were not always called active | inhibition, %; hits with a dose series show IC50 in µM | 260,000 tested, 0.57% active;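 active = above the screen mean plus three standard deviations and confirmed in dose response; inconclusive = results disagree or hit not tested in dose response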;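 also: Vif residues 1-94 fused to GST binding biotinylated APOBEC3G peptide 110-148; 0% = full assay without inhibitor and 100% = GST in place of GST-Vif; retest series ran down from 100 µM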
An asterisk follows results filed as active; ? = inconclusive; · = not tested or not shown; & = joins results of further samples.

Each structure is followed by: E coli growth | LANA-H2A inh | Beta2AR agonist | UCH37 inh | HNF4A DNA FP | Bfl-1 A1 inh | Vif TR-FRET
Cc1cc2nc(SCCN3CCCC3)[nH]c2cc1C
 : 0.67 | 3.8 | -2 | 2.1 | -0.8 | 0.0 | 0%
CC1CCCC(C)N1S(=O)(=O)c1ccc(NC(=O)CCn2cnc3ccccc3c2=O)cc1 (stereo not given)
 : 0.69 | -2.8 | 3 | 4.5 | -3.7 | -0.6 | -1%&-2%
N#Cc1ccc(C(=O)Nn2cnnc2)cc1
 : 0.64 | -1.0 | -7 | 2.7 | 0.0 | 0.5 | ·
Nc1cc(Cl)c(N)cc1Cl
 : 0.67 | 4.8 | 9 | 2.3 | 4.5 | -0.5 | 15%
O=C1CN(C(=O)COC(=O)c2cc(S(=O)(=O)N3CCOCC3)ccc2Cl)c2ccccc2N1
 : 0.65 | 0.4 | 42* | 5.4 | -3.0 | -0.1 | ·
COc1ccc2c(C=O)c[nH]c2c1
 : 0.66 | 1.2 | 14 | -2.3 | 4.9 | 0.9 | ·
CC(OC(=O)c1ccco1)C(=O)Nc1ccc(Cl)cn1 (stereo not given)
 : 0.66 | -1.3 | 5 | 0.6 | -0.5 | -0.8 | 1%
CN1CCSc2ccc(C(=O)NCc3ccccc3F)cc21
 : 0.64 | -5.0 | -3 | -104 | 1.6 | -0.4 | ·
O=C(NCCc1c[nH]c2ccccc12)c1ccc2nc[nH]c2c1
 : 0.69 | -4.2 | 8 | 2.3 | 2.1 | 0.1 | 3%
COC(=O)c1ccc(Cn2cnc3cnccc32)cc1
 : 0.61 | -0.9 | 1 | 2.2 | 2.9 | 0.3 | ·
O=C(CSc1cccs1)Nc1ccc(Cl)cc1
 : 0.7 | 3.6 | 1 | 2.2 | 1.5 | -0.3 | 23%
Cc1cc(C(=O)Nn2cnnc2)cs1
 : 0.71 | 2.3 | 3 | 2.3 | -0.5 | 0.0 | -4%
CCOC(=O)N1CCN(C(=O)COC(=O)CN(C)S(=O)(=O)c2ccc(NC(C)=O)cc2)CC1
 : 0.74 | 0.8 | -1 | 3.7 | 0.2 | 0.5 | ·
COc1ccc(NS(=O)(=O)c2ccc(OC)c(NC(=O)CNC(=O)c3ccc(OC)cc3)c2)cc1
 : 0.73 | 2.1 | -2 | -1.7 | 2.9 | -0.3 | 18%
c1ccc(-c2nn3c(C4CCCCC4)nnc3s2)nc1
 : 0.71 | 5.7 | -2 | 3.1 | 1.6 | 1.5 | ?
O=C(NCc1ccccc1Cl)C(=O)c1c[nH]c2ccccc12
 : 0.71 | -2.6 | -1 | 6.0 | 3.6 | 0.5 | 5%
O=C(c1nnsc1S(=O)c1ccc(Cl)cc1)N1CCOCC1 (stereo not given)
 : 0.68 | · | 29 | 8.9 | 2.2 | · | -22%
O=S(=O)(c1ccc2c(c1)CCC2)N1CCNCC1
 : 0.66 | · | -2 | 1.2 | 2.6 | · | 6%
COC(=O)C(O)(CC(=O)Nc1ccc(OC(F)(F)F)cc1)C(F)(F)F (stereo not given)
 : 0.67 | -4.4 | -4 | 3.6 | 3.4 | 0.5 | -8%
CCC(=O)c1ccc(OCC(=O)Nc2ccccc2C(=O)NC2CC2)cc1
 : 0.67 | -2.4 | 10 | 0.5 | -3.8 | -0.8 | ·
COc1ccc(S(=O)(=O)N(C)c2ccc(C(=O)NCC3CCCO3)cc2)cc1 (stereo not given)
 : 0.71 | -6.2 | -1 | 2.8 | -1.5 | -0.2 | 18%
Cc1cccc(NC(=O)CSc2nnc(NC(=O)C3CC3)s2)c1C
 : 0.66 | -3.9 | 1 | 1.4 | -1.6 | -0.1 | ·
CCN(CC)C(=O)C1CCCN(c2ncnc3c2cnn3-c2cccc(C)c2)C1 (stereo not given)
 : 0.69 | -1.3 | -3 | -3.0 | -0.7 | 0.5 | -1%
Cc1cccc(-n2c(CNC(=O)c3ccc(S(=O)(=O)N4CCCCC4)cc3)n[nH]c2=S)c1
 : 0.7 | -8.3 | 4 | 2.2 | 2.9 | 0.4 | 5%
CN(CC(=O)NCc1cccs1)S(=O)(=O)c1cccc2nsnc12
 : 0.68 | 4.4 | -5 | 3.0 | -1.1 | 0.6 | -1%
O=C(COC(=O)CNC(=O)c1ccc(Cl)cc1Cl)NC(=O)NCc1ccccc1
 : · | -3.5 | 2 | · | -0.9 | 0.2 | ·
CCc1nnc(NC(=O)c2cc(-c3ccco3)nc3ccccc23)s1
 : 0.68 | 2.7 | -1 | -95 | -57 | 0.3 | ?
Cc1nn(C)cc1/C=N\NC(=O)Cc1ccc([N+](=O)[O-])cc1
 : · | 1.2 | -5 | · | 1.3 | 0.0 | ·
O=C(CN1CCOCCOCCOCCOCC1)Nc1ccccc1
 : 0.69 | 0.9 | -5 | 3.6 | 6.3 | 0.6 | 0%
COc1ccc(NC(=O)c2n[nH]c(=O)c3ccccc23)cc1S(=O)(=O)N1CCCCC1
 : 0.68 | -4.6 | 7 | 6.6 | 3.1 | -1.1 | 27%
O=C1N/C(=N/N=C/c2ccc(O)cc2)SC1Cc1ccccc1 (stereo not given)
 : · | 1.4 | -4 | · | -0.3 | 0.2 | -3%
C[C@H](CO)N1C[C@H](C)[C@@H](CN(C)S(C)(=O)=O)Oc2c(NC(=O)Nc3ccccc3)cccc2C1=O
 : · | · | 1 | 2.1 | -1.9 | · | ·
COc1ccc(CCNC(=O)CCS(=O)(=O)c2ccc3nc(C)sc3c2)cc1OC
 : 0.69 | -4.0 | 1 | 4.8 | -1.7 | · | ·
Cc1ccc(OCCn2nc3ccccc3n2)c(C)c1
 : 0.67 | 2.7 | 4 | 2.7 | -1.9 | -0.9 | 2%
CCCCn1c(SCc2nc(N)nc(Nc3ccccc3C)n2)nc2ccccc2c1=O
 : 0.8 | -0.8 | -15 | 0.0 | 3.7 | -0.2 | -6%&2%
CCc1nnc(NC(=O)CN2CC(C)OC(C)C2)s1 (stereo not given)
 : 0.69 | -2.3 | 0 | -0.3 | 2.7 | 0.7 | 2%
O=C(CN1CCN(C(=O)C2COc3ccccc3O2)CC1)Nc1ccc(F)cc1 (stereo not given)
 : 0.63 | 5.6 | -3 | 0.8 | 0.8 | 0.2 | 2%
CCOC(=O)c1cccc(NC(=O)CCn2nc(C)c(S(=O)(=O)N3CCCCC3)c2C)c1
 : 0.66 | -5.1 | -7 | -0.9 | 2.7 | 0.8 | -9%
CC(C)(C)NS(=O)(=O)c1ccc(NC(=O)NC2CCCCC2)cc1
 : 0.67 | -0.3 | 6 | 3.6 | -0.1 | 0.7 | -2%
CCN(CC)S(=O)(=O)c1cccc(-c2nnc(SCC(N)=O)n2N)c1
 : 0.7 | 4.3 | -13 | 5.0 | 0.8 | 0.5 | 2%
O=C(O)COc1ccc2c(c1)OCCO2
 : 0.74 | 1.5 | -1 | 2.0 | -2.6 | -1.8 | -2%
CCOC(=O)c1ccc(NS(=O)(=O)c2cccc3nsnc23)cc1
 : 0.77 | -5.9 | -4 | 3.6 | 2.1 | 0.4 | -4%
CCN(c1ccccc1)S(=O)(=O)c1ccc(C(=O)NCC(c2cccs2)N(C)C)cc1 (stereo not given)
 : 0.67 | -1.0 | -2 | -0.2 | 2.9 | 1.1 | 0%
O=Cc1cccn1-c1ccccc1
 : 0.73 | 5.4 | 0 | 4.0 | -2.3 | 0.0 | ·
CC(C)c1ccc(/C=N/n2c(-c3ccccc3)n[nH]c2=S)cc1
 : · | -2.0 | 7 | · | -4.2 | 0.9 | ·
OCC[C@@H]1C[C@@H](O)[C@H](O)[C@]2(CCc3ccccc3CO2)O1
 : · | 1.7 | 4 | 0.3 | 3.1 | 1.0 | ·
COc1ccccc1OCCNS(=O)(=O)c1ccc2oc3ccccc3c2c1
 : 0.71 | 0.4 | -16 | 5.9 | -0.7 | 0.5 | 0%
COc1ccccc1NC(=O)c1ccc(S(=O)(=O)NCc2ccco2)cc1
 : 0.65 | 1.9 | 6 | 4.9 | 3.1 | -0.2 | ·
CC(C)C(NC(=O)C1CCCCC1)C(=O)Nc1ccc2c(c1)OCCO2 (stereo not given)
 : 0.75 | 1.7 | 4 | 2.4 | 3.1 | -2.1 | ?
O=S(=O)(NCC1CC1)c1cccc(S(=O)(=O)N2CCCC2)c1
 : 0.73 | 5.1 | 4 | 4.4 | -1.3 | 0.9 | 13%
CC(C)Sc1nc2c(c(=O)[nH]c(=O)n2C)n1Cc1ccc(Cl)cc1
 : 0.71 | -0.2 | -8 | · | -2.5 | -0.1 | 0%
COc1ccccc1N1CCN(C2=Nc3cccc4cccc2c34)CC1
 : 0.72 | 2.6 | 1 | 4.4 | 9.1 | 0.0 | ·
CSc1cc(-c2ccccc2)n(Cc2c(Cl)cccc2Cl)c(=O)c1C#N
 : 0.82 | -8.9 | 8 | 1.5 | 0.2 | -0.1 | 5%
CCN(CC)CCN(C(=O)CCS(=O)(=O)c1ccccc1)c1nc2cc(OC)c(OC)cc2s1
 : 0.7 | 8.3 | 3 | 1.9 | 5.1 | -0.1 | 1%
N=C1/C(=C/c2cccn2Cc2ccc(F)cc2)C(=O)N=C2SC=CN12
 : 0.69 | 5.0 | 20 | -1.7 | 4.4 | 0.4 | -7%
COc1cccc(C(O)c2nccn2Cc2ccccc2)c1OC (stereo not given)
 : 0.66 | 4.4 | -1 | 0.7 | 1.5 | -0.4 | -7%
CCCCCc1cc(O)c2c(C)cc(=O)oc2c1
 : 0.68 | -1.1 | -4 | 0.8 | 0.8 | 0.2 | 0%
c1ccc(-c2ccc(OCCCn3cncn3)cc2)cc1
 : 0.6 | -1.1 | 7 | 0.2 | -4.4 | -1.5 | 24%
CCn1c(=O)c(C(=O)CN(C)Cc2ccc(F)cc2)c(N)n(Cc2ccccc2)c1=O
 : 0.68 | 3.1 | 4 | 0.6 | 0.1 | 0.4 | -10%
CCCCc1nnc(NC(=O)CSCc2cc(=O)n3cc(C)sc3n2)s1
 : 0.63 | -6.4 | -4 | 1.8 | -2.8 | 0.2 | ·

(continued)
Each structure is followed by: E coli growth | LANA-H2A inh | Beta2AR agonist | UCH37 inh | HNF4A DNA FP | Bfl-1 A1 inh | Vif TR-FRET
O=C(O)c1cc(N2C(=O)C3CCCCC3C2=O)ccc1NCc1cccnc1 (stereo not given)
 : 0.65 | -1.2 | 1 | -48 | 0.1 | -0.2 | 0%
COc1ccc(-c2csc(N(Cc3ccco3)C(=O)c3cccs3)n2)cc1
 : 0.71 | 0.2 | 5 | -0.3 | 10 | 0.4 | 14%
Cn1c(N)c(C(=O)COC(=O)C2(c3ccccc3F)CCCC2)c(=O)n(C)c1=O
 : 0.74 | -2.2 | -4 | 1.6 | -0.7 | 0.3 | -3%
S=C(NCc1ccco1)Nc1ccc(Br)cn1
 : 0.73 | 1.5 | -3 | 0.0 | 1.6 | -0.6 | -6%
Cc1ccccc1CN1[C@@H](C(C)C)COCCS1(=O)=O
 : · | -5.7 | -5 | 3.2 | -1.4 | -0.6 | ·
CCCNC(=S)N(Cc1ccccc1)Cc1nc2ccccc2c(=O)[nH]1
 : 0.66 | 1.2 | 10 | -39 | 1.2 | 0.0 | -4%
O=C(NNC(=S)Nc1ccccc1)C1CC1
 : 0.7 | 1.9 | -6 | 1.9 | 2.5 | -0.2 | 1%

Compounds as they come. Share with any hit: about 2.1%.
